Sfp inh: qHTS Assay for Inhibitors of Bacillus subtilis Sfp phosphopantetheinyl transferase (PPTase). 4'-phosphopantetheinyl transferase ffp (Bacillus subtilis), Q9F4F7. Biochemical Sfp PPTase activity, qHTS. Potency, µM, inactives show max response, negative = inhibition, actives largely listed as inhibitors. hit rate 3.5% among 310,000; active = well fitted inhibition curve with a large enough effect; inconclusive = small, poorly fitted or top-dose-only effect, or another doubt; inactive = no such curve, though single readings can be large or run the other way;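 note: the enzyme is Sfp with the accession as filed and its product quenches rhodamine fluorescence; potency is the fitted concentration of half-maximal effect; 0% = enzyme reaction without inhibitor and -100% = no enzyme wells; top concentration of the series not given in the record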
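Step 1, compound plus 15 nM Sfp-PPTase, 15 min, room temperature. Step 2, add rhodamine-CoA (5 uM) and BHQ-2-YbbR (12.5 uM). Step 3, read 525/598 nm fluorescence at 0 and 30 min.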
TRPV1 PAM: HTS Assay for Compounds that Act as Potentiators of the Vanilloid Receptor 1 | Transient receptor potential cation channel subfamily V member 1 (Homo sapiens), Q8NER1 | TRPV1-expressing cells, Fluo-8 calcium influx, capsaicin EC20 potentiation; host cell line not named in the record; control for the full effect not named in the record | potentiation, % at 8.33 µM | hit rate 0.02% among 320,000 | AID 540277, 2011; active means potentiation above 80%; inconclusive means 30% to 80%; inactive means below 30%; note: 0% is about no effect
Target sequence (Q8NER1 whole entry, looked up): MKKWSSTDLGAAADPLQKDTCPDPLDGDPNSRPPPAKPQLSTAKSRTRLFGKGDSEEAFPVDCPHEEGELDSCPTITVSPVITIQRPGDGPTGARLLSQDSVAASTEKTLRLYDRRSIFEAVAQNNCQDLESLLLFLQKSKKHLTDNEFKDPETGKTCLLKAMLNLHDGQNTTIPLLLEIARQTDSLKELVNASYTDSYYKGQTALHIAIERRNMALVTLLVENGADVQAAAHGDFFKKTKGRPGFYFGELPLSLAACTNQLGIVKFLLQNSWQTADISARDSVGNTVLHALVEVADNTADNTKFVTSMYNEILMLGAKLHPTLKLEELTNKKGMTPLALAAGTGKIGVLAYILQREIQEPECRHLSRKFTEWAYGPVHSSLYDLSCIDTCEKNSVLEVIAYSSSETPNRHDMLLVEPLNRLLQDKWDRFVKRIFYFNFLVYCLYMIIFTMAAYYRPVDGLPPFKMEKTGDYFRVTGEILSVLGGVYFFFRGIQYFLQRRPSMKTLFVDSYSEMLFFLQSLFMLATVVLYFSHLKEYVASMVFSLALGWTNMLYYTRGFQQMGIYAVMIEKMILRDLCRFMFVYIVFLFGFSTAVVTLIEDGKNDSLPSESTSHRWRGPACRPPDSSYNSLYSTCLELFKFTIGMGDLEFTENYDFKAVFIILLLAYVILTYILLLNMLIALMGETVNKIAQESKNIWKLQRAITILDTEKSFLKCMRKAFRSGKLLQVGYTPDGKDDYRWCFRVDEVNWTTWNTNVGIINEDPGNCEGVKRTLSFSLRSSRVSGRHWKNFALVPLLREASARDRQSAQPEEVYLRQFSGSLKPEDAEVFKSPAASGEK
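Cells expressing TRPV1 were dye-loaded with Fluo-8 and read kinetically: 10 s baseline, 3 min after compound (agonist portion), then 2 min after EC20 capsaicin (allosteric enhancer portion). Calcium-bound dye fluorescence at 480/520 nm.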
gsp agonist: qHTS for Agonist of gsp, the Etiologic Mutation Responsible for Fibrous Dysplasia/McCune-Albright Syndrome: qHTS. gsp mutant cells, cAMP HTRF, 30 min; control for the full effect not named in the record. Potency, µM (series often up to 76.9 µM), for the others: top-dose activation (cAMP increase), actives largely listed as activators. hit rate 0.13% among 340,000. AID 624287, 2012; active = well fitted activation curve with a large enough effect; inconclusive = small, poorly fitted or top-dose-only effect, or another doubt; inactive = no such curve, though single readings can be large or run the other way; cell line not stated here;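 note: phosphodiesterase inhibitor Ro 20-1724 added with compounds to block cAMP breakdown; potency is the fitted concentration of half-maximal effect; nearly all actives have a fitted effect of over 60% in size; about a fifth of the inactives were tested at one dose only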
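Cells in DMEM/10% FBS with G418 were pretreated with compounds in DMSO plus […] (300 uM stock) for 30 min at 37C. cAMP was measured by HTRF (cAMP-d2 plus anti-cAMP antibody-K) after 30 min at room temperature.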
gsp antagonist: qHTS for Antagonists of gsp, the Etiologic Mutation Responsible for Fibrous Dysplasia/McCune-Albright Syndrome: qHTS; Potency, µM (series often up to 76.9 µM), without a hit: at the highest dose activity change, negative = inhibition, actives largely listed as inhibitors; gsp-mutant cells, cAMP HTRF, 30 min; control for the full effect not named in the record; hit rate 0.4% among 340,000; active = falling curve of any shape with a large fitted effect; inconclusive = falling curve, mostly with a smaller effect; inactive = flat or rising curve; cell line not stated here;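 note: intracellular cAMP measured with PDE inhibitor Ro 20-1724 present during compound exposure; potency is the fitted concentration of half-maximal effect; % is set by controls: 0 for no effect and ±100 for the full control effect; nearly all actives have a fitted effect of over 65% in size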
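HTRF cAMP measurement after 30 min RT detection following 30 min, 37C compound treatment alongside […] (added as 300 uM solution) in G418-selected cells seeded at 2000/well and grown 16–24 h.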
ClpP mod: qHTS Assay for Activators of ClpP | ATP-dependent Clp protease proteolytic subunit (Bacillus subtilis (strain 168)), P80244 | purified B. subtilis ClpP, FRET peptide cleavage, 20 min | Potency, µM (highest dose often 57.5 µM), for the others: top-dose activity change, negative = active | hit rate 1.9% among 340,000; active = well fitted falling curve with a large enough effect; inconclusive = small, poorly fitted or top-dose-only effect; inactive = no such curve, though single readings can be large or run the other way; note: potency is the fitted concentration of half-maximal effect; the source files actives as falling curves though it sought activators and does not explain the sign; nearly all actives have a fitted effect of over 65% in size; many hits overshoot -100%
Target sequence (P80244 whole entry, looked up): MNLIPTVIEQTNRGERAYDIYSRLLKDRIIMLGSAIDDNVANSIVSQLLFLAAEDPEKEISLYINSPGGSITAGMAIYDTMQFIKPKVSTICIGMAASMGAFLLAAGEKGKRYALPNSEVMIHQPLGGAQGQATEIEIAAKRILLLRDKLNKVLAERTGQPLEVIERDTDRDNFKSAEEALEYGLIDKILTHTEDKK
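FRET quenching reversal measured ClpP activation: 10 microg/mL B. subtilis ClpP at pH 8 with the FRET-FV decapeptide, read at 430 nm after 320 nm excitation. The 20-min minus 0-min signal was scaled between DMSO/no-enzyme wells and ADEP (5.8 microM final).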
CtBP-E1A blk: qHTS Assay for Inhibitors of the CtBP/E1A Interaction; CtBP / adenovirus E1A interaction (AlphaScreen); AID 651724, 2012; hit rate 0.49% among 340,000; AlphaScreen GST-E1A/His-CtBP binding, 1536-well; hits give low values; control for the full effect not named in the record; activity change, % (test concentration not listed); in the data active means activity change below about -65%; inconclusive means about -30% to -65%; inactive means above about -30%; note: % is set by controls: 0 for no effect and ±100 for the full control effect; compound concentration not given in the record
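Homogeneous bead-based format: GST-tagged E1A captured on glutathione donor beads, His-tagged CtBP on nickel acceptor beads; compounds precede bead addition by 2 h at 37 °C.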
Menin-MLL FL inh: qHTS Assay for Inhibitors Targeting the Menin-MLL Interaction in MLL Related Leukemias: Competition With Fluorescein Labeled MLL-derived Peptide; AID 1766, 2009; FP activity change, % at 61.4 µM; 290,000 tested, under 10 active; Fluorescence polarization, fluorescein-MLL peptide displacement from menin; inconclusive = falling polarisation curve, or a change in total fluorescence; inactive = total fluorescence flat and polarisation flat or rising; no compound was filed as active; the % refers to the polarisation; negative = inhibition;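 note: % of control where 0% means no effect; inhibitors lower the polarisation; unlabelled MLL peptide was the positive control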
Starred values were filed as active, the others as inactive; ? = inconclusive; / = no result given; & = joins results of further samples; [ ] = remark or other dose. No enrichment for hits; 5.3% or so of the library scored in one or more.

The opening 6 entries, ahead of the listing:
SMILES	Sfp inh	TRPV1 PAM	gsp agonist	gsp antagonist	ClpP mod	CtBP-E1A blk	Menin-MLL FL inh
O=C(CCN1C(=O)C2CC=C(Cl)CC2C1=O)NCc1ccccc1 (stereo not drawn)	3.7%	19.0	-33.0%[inhibitor]	3.2%	-0.1%	7.4	1.6
S=c1nc(-c2ccc(Cl)cc2)[nH][nH]1	44.7µM*	9.2	-69.4%[inhibitor][15.4 µM]	-16.5%	/	1.0	-4.0
CCCc1n[nH]c2c1/C(=N\O)CCC2	15.0%	0.1	-2.4%	5.7%	-0.5%	-1.2	2.7
CCCS(=O)(=O)N1CCN(Cc2ccc(OCc3ccccc3)c(OC)c2)CC1	/	/	6.7%	-10.4%	-15.0%	2.5	/
Cc1ccc2cc(NC(=O)c3ccccc3)ccc2n1	5.5%	-2.2	?	-3.5%	-1.9%	3.4	-1.9
CCc1cccc(C)c1NC(=O)CCOc1ccccc1	11.4%	12.6	9.1%[15.4 µM]	1.9%	1.3%	7.7	2.0

This part in full, previewed entries included:
SMILES	Sfp inh	TRPV1 PAM	gsp agonist	gsp antagonist	ClpP mod	CtBP-E1A blk	Menin-MLL FL inh
O=C(CCN1C(=O)C2CC=C(Cl)CC2C1=O)NCc1ccccc1 (stereo not drawn)	3.7%	19.0	-33.0%[inhibitor]	3.2%	-0.1%	7.4	1.6
S=c1nc(-c2ccc(Cl)cc2)[nH][nH]1	44.7µM*	9.2	-69.4%[inhibitor][15.4 µM]	-16.5%	/	1.0	-4.0
CCCc1n[nH]c2c1/C(=N\O)CCC2	15.0%	0.1	-2.4%	5.7%	-0.5%	-1.2	2.7
CCCS(=O)(=O)N1CCN(Cc2ccc(OCc3ccccc3)c(OC)c2)CC1	/	/	6.7%	-10.4%	-15.0%	2.5	/
Cc1ccc2cc(NC(=O)c3ccccc3)ccc2n1	5.5%	-2.2	?	-3.5%	-1.9%	3.4	-1.9
CCc1cccc(C)c1NC(=O)CCOc1ccccc1	11.4%	12.6	9.1%[15.4 µM]	1.9%	1.3%	7.7	2.0
Cn1c(=O)n(Cc2ccc(F)cc2)c(=O)c2c1nc1n2CCCN1Cc1ccccc1	5.9%	8.0	13.6%	-8.6%	-4.3%	-0.3	-0.5
COc1ccc(NC(=O)c2cc(-c3cc(C)ccc3O)n[nH]2)cc1Cl	15.6%	20.6	0.7%	7.9%	-0.6%	-4.3	1.9
COC(=O)C1CCCN1S(=O)(=O)c1ccccc1NC(=O)c1cc(OC)c(OC)c(OC)c1 (stereo not drawn)	3.0%	-6.3	-16.9%	-0.4%	-4.4%	-13.5	0.3
CC(=O)NC1C(OCc2ccccc2)OC(CO)C(OC(C)=O)C1OC(C)=O (stereo not drawn)	16.9%	-12.6	-20.0%	8.0%	0.9%	2.8	3.0
CCOc1ccc(OCCC(=O)OCC(=O)Nc2ccc(N3CCOCC3)cc2)cc1	2.2%	1.9	-0.3%[15.4 µM]	-15.4%	-3.6%	2.2	/
COc1ccc(C(=O)C2CN(c3ccccc3)CC2c2ccc(Cl)cc2)cc1 (stereo not drawn)	6.1%	-10.7	-4.5%	-1.3%[15.4 µM]	-6.1%	-1.8	12.0
CN(C(=O)CN1C(=O)S/C(=C\c2ccc(F)cc2)C1=O)C1CCS(=O)(=O)C1 (stereo not drawn)	1.7%	8.1	3.3%	0.1%	1.8%	-7.2	-3.0
C/C=C(/C)C(=O)Nc1cccc(C2=NOC3(C2)C[C@@H](C(N)=O)N(C(=O)CCCCC)C3)c1 (stereo partly drawn)	7.0%	-26.5	7.1%	8.8%	-2.1%	/	0.2
CCc1ccc2c(c1)C(NC(C)=O)C(=O)N2CCN1CCOCC1 (stereo not drawn)	?	10.9	-2.1%[15.4 µM]	6.9%	/	4.4	/
CCOC(=O)C(NC(=O)c1ccc(OC)cc1)(OCC1(CC)COC1)C(F)(F)F (stereo not drawn)	-2.6%	12.3	1.3%	-0.1%	0.7%	4.1	1.0
Cc1cccc(OCC(=O)OC(C)C(=O)Nc2ccc(S(=O)(=O)N3CCCCC3)cc2)c1 (stereo not drawn)	/	-3.8	-3.9%	3.2%	-3.7%	0.0	/
COc1ccc2oc(C(=O)OCC(=O)N(C)c3c(N)n(Cc4ccccc4)c(=O)[nH]c3=O)c(C)c2c1	/	-1.1	5.0%	-10.1%	-28.8%	-3.5	/
COc1ccccc1N(CC(=O)NC1CCCC1)C(=O)CCC(=O)Nc1cc(C)on1	15.1%	11.0	-18.4%	-3.6%	0.3%	2.5	4.5
COc1ccc(-c2noc(CCCC(=O)Nc3ccc(C(N)=O)cc3)n2)cc1OC	-5.9%	/	2.8%[15.4 µM]	15.8%	?	-2.6	3.2
COCC1CCN(Cc2c(C(=O)N3CCN(C4CCCCC4)CC3)nc3ccccn23)C1 (stereo not drawn)	6.4%	-7.5	13.9%	4.5%	?	4.9	-27.5
O=C(C1=C(O)C(=O)N(CC2CCCO2)C1c1ccccc1[N+](=O)[O-])c1ccco1 (stereo not drawn)	-6.9%	2.0	-0.9%	9.8%	/	5.0	3.3
COc1ccccc1/C=N/NC(=O)CCSc1ccccc1	-3.2%	?	15.0%	4.5%	0.8%	/	3.9
O=C(Nc1ccccc1)N1CCCN(Cc2ccccc2F)C1	13.9%	-10.4	-2.7%	-0.9%	2.2%	3.5	5.6
COc1ccc(C(=O)NCC(=O)OCC(=O)N2CCC(C)CC2)cc1OC	19.2%	-2.1	-5.0%[15.4 µM]	7.5%	/	-2.7	-2.0
(further entries)
SMILES	Sfp inh	TRPV1 PAM	gsp agonist	gsp antagonist	ClpP mod	CtBP-E1A blk	Menin-MLL FL inh
CCOc1ccc(/C=C/C(=O)N(CC)CC(=O)Nc2ccc3c(c2)OCCO3)cc1OC	/	26.3	-8.2%[15.4 µM]	-5.8%	/	1.4	/
Cc1ccc(CNC(=O)COC(=O)c2cncc(Br)c2)cc1	2.7%	-6.7	?	12.1%	/	12.0	11.6
O=C1CC(c2ccccc2)CC(O)=C1C=Nc1ccccc1Cl (stereo not drawn)	?	-8.9	-1.9%	-2.0%	84.2%	-1.5	10.6
Cc1cc(C(=O)NCc2cccs2)c(C)o1	-21.4%	4.8	-52.9%[inhibitor]	1.9%	2.6%	0.7	2.0
COc1ccc(N2CCN(C(=O)COc3ccc4c(C)cc(=O)oc4c3)CC2)cc1	14.0%	-11.2	0.5%[15.4 µM]	?	/	-9.5	-2.6
CCOc1ccccc1CNC(=O)C1CCC(=O)N1C(C)C (stereo not drawn)	23.9%	5.5	-23.4%	9.9%	-0.6%	16.0	2.9
Cn1nc(C(F)(F)F)c(-c2ccccc2)c1NC(=O)c1nccnc1C(=O)O	-14.9%	13.5	1.4%	15.0%	1.0%	-0.3	-1.8
CCn1c(O)c(N=NC(=O)CNC(=O)/C=C/c2ccccc2)c2ccccc21	5.4%	?	0.2%	-4.6%	-0.1%	-14.6	/
C[C@@H](C(=O)Nc1ccc2ccccc2c1)[C@@H]1C[C@@]1(C)[C@@H](NC(=O)c1cccnc1)c1ccccc1	-1.8%&20.1%	19.1	-34.3%[inhibitor]	-24.4%	-5.2%	/	-0.7&0.0
COc1ccc(OC)c(S(=O)(=O)N2CCC3(CC2)OCCN3S(=O)(=O)c2ccccc2)c1	/	-5.1	0.1%[15.4 µM]	1.1%	?	4.2	/
COc1ccc(CCNC(=O)Cc2ccc(NS(=O)(=O)c3ccc(F)cc3)cc2)cc1OC	/	3.0	?	-15.0%	0.6%	-0.6	/
COc1ccc(-c2ccc(SCC(=O)NCc3ccc4c(c3)OCO4)nn2)cc1OC	5.0%	-5.4	-15.9%[15.4 µM]	-16.9%	/	-0.5	-0.7
O=C(Nc1ccccc1)N1N=C(c2cccs2)CC1c1cccs1 (stereo not drawn)	0.6%	-13.5	-3.1%	-0.9%	31.6µM*	-20.1	1.4
CC(C)=CCc1c(C)nc2ccccc2c1C(=O)O	20.6%	-8.1	10.2%	5.6%	-2.7%	2.8	2.0
COc1ccccc1N1CCN(/N=C/c2cc(OC)c(OC(C)=O)c(OC)c2)CC1	7.2%	28.2	-51.9%[inhibitor]	-3.9%	0.3%	/	5.2
COc1ccc(/C=C/C(=O)c2ccc3c(c2)OCO3)c(OC)c1	-8.6%	-7.5	-8.2%	-18.5%	-3.8%	/	1.9
O=C(Cc1ccc(-n2c(=O)c3sccc3n(Cc3ccc(F)cc3)c2=O)cc1)NCc1ccco1	-8.1%	-16.2	-9.4%	6.1%	-1.0%	-2.2	-1.8
CC(C)CNC(=O)C(=O)NC1CCCC1	/	/	-41.9%[inhibitor]	18.7%	-1.7%	2.9	/
CCOC(=O)C(C(C)=O)c1nc(C)nc2c1nnn2Cc1ccccc1Cl (stereo not drawn)	-13.7%	-22.2	-1.7%[15.4 µM]	4.5%	-0.7%	-17.1	8.4
Cc1cc(C)c(C(N)=O)c(Nc2cccc(Cl)c2C)n1	-9.3%	21.7	16.8%	-20.4%	-0.3%	-4.9	3.1
O=S(=O)(O)c1ccc(Cl)c(Cl)c1	/	/	20.5%	4.1%	/	9.3	/
CC(C)c1ccc(NC(=O)NCc2ccccn2)cc1	8.8%	-4.1	3.6%	9.3%	-1.9%	0.0	-0.3
Cc1cc(C(=O)C(=O)N(C)C)c(C)n1-c1ccc(Cl)cc1	14.9%	1.9	-5.8%	7.6%	/	-0.9	-4.4

High-throughput results deposited in PubChem BioAssay by National Center for Advancing Translational Sciences (NCATS).
